FPR ligand = ligands of human FPR, also counter-screen for FPRL1 ligands; FPR-expressing cells, fluorescent ligand binding, flow cytometry; inhibition, %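 (tested at 6.7 µM)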; 0.74% of 24,000 active;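 note: 0% = buffer wells and 100% = receptor blocker peptide wells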
Target sequence (P21462 whole entry, looked up): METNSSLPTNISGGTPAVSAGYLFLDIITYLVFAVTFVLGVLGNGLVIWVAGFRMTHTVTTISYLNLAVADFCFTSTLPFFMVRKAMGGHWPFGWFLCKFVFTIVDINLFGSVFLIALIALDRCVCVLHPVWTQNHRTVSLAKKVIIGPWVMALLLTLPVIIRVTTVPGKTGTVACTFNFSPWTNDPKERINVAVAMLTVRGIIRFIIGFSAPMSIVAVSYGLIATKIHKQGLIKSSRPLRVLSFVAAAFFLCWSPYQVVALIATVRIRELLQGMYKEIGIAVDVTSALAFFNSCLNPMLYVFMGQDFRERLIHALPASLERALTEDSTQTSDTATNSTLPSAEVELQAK
VCAM-1 down = suppression of endothelial VCAM-1 upregulation – cell-based, plate reader, pooled HUVEC, TNFa stimulus (AID 454) | HUVEC TNFa-induced VCAM-1 surface immunofluorescence, plate reader; numbers were filed only for top-ranked candidate wells | inhibition, % at 5 µM | 0.2% of 10,000 active;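 active = compound among top-ranked inhibitors of TNF-induced VCAM-1 adhesion protein staining, with the hit upheld by image or statistical review; inactive = the rest, including hits rejected on review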;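 note: 0% = TNFa with vehicle and 100% = cells without TNFa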
VCAM-1 augmentation = enhancers of VCAM-1 display on endothelial cells, imaging, high-content imaging, pooled HUVEC, TNFa stimulus (AID 457); 0.2% of 10,000 active; Pooled HUVEC, TNFa-induced VCAM-1 immunofluorescence imaging; hits of this screen are not shown here; calls only;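 active = a top-ranked rise in VCAM-1 staining upheld on image or statistical review; inactive = the rest, including candidates rejected on review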;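 note: compounds tested at 5 µM in the well; cells exposed to compound for 24 hours before fixing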
VCAM-1 imaging = inhibitors of TNFa-induced VCAM-1 surface display, imaging, high-content imaging, pooled HUVEC, TNFa stimulus (AID 456); 0.2% of 10,000 active; HUVEC TNFa-induced VCAM-1 surface expression, immunofluorescence imaging; numbers were filed only for top-ranked candidate wells; one-dose inhibition, % at 5 µM; IC50 in µM for titrated hits;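 active = top tenth filtered wells with inhibition above zero that passed visual or statistical confirmation; inactive = the rest, including hits rejected on review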;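 note: 0% = stimulated vehicle wells and 100% = unstimulated cells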
FPRL1 ligand = ligands of human FPRL1, also counter-screen for FPR ligands; P25090; FPRL1-expressing cells, fluorescent ligand binding inhibition, flow cytometry; 0.3% of 24,000 active; inhibition, %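 (tested at 6.7 µM)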;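 note: 0% = buffer alone and 100% = receptor blocker peptide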
Target sequence (P25090 whole entry, looked up): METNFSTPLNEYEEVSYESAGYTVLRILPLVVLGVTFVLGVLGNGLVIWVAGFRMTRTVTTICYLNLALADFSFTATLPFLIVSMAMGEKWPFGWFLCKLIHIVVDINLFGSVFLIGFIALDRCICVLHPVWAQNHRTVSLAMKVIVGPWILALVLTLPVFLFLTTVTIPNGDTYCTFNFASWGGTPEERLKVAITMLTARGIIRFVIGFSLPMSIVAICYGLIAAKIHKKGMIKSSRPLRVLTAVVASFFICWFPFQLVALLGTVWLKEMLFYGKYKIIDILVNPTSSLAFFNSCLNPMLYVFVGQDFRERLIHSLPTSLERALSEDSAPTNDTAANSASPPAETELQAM
* hit, by the source's call; i = inactive; · = no result given.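 Rule for the calls, unless noted: active = mean above 30%; inconclusive = self-fluorescent; inactive = the rest.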

SMILES	FPR ligand	VCAM-1 down	VCAM-1 augmentation	VCAM-1 imaging	FPRL1 ligand
CCN(CC)C(c1ccc(C)cc1)c1nnnn1C1CCCCC1 (centres undefined)	12	i	i	i	-3
Cc1ccc(C2C(=O)N(C3CCCC3)CC(=O)N2CC2COc3ccccc3O2)cc1 (centres undefined)	3	·	·	·	1
CCS(=O)(=O)c1ccc(S(=O)(=O)CC)s1	-2	i	i	i	3
CCOC(=O)c1oc2cc(O)ccc2c(=O)c1-c1csc(C)n1	-11	·	·	·	-3
CCOC(=O)c1cnc2c(OC)cccc2c1N1CCN(c2ccccc2OC)CC1	2	·	·	·	-3
CC(=O)c1cccc(NC(=O)N2C3CCC2CC(O)(c2cccnc2)C3)c1 (centres undefined)	1	i	i	i	22
CC(C)(C)c1cc(NS(=O)(=O)c2ccc3c(c2)OCCO3)on1	-1	i	i	i	-5
CCC(NC(=O)c1ccccc1NC(=O)c1ccccc1)C(=O)O (centres undefined)	-2	·	·	·	-1
Cc1c(C(=O)NCc2ccccn2)oc2ccc(S(=O)(=O)N3CCOCC3)cc12	3	·	·	·	7
Cn1c2ccc(F)cc2c2ncn(CCN3CCOCC3)c(=O)c21	-1	i	i	i	-1
COc1ccc(OC)c(C(=O)CN2CCN(S(=O)(=O)c3ccc(Br)cc3)CC2)c1	1	·	·	·	-4
Cc1cc(C(=O)OCCO)c(C#N)c(N)n1	12	i	i	i	-14
Cc1cccc(-n2ncc(C#N)c2N)c1	1	i	i	i	3
CCOc1ccc(CNC(=O)CCn2c(=O)oc3ccccc32)cc1	2	·	·	·	1
O=C(CSc1nnc(CNC(=O)c2c(F)cccc2Cl)o1)Nc1ccc2c(c1)OCCO2	-2	·	·	·	-3
c1ccc(OCCCn2nnc(-c3ccncc3)n2)cc1	5	i	i	i	-1
CCOC(=O)c1c(C)nc(-c2ccccc2)nc1NC(=O)CC	-1	·	·	·	4
COc1ccc(N(CC(=O)NCc2ccccc2)S(=O)(=O)c2c(C)noc2C)cc1	1	·	·	·	4
Fc1ccc(Cc2nnc(-c3cccs3)o2)cc1	2	·	·	·	2
CCOC(=O)c1sc(=S)n2c1[nH]c(=O)c1ccc(C(=O)OC)cc12	36*	·	·	·	3
CCOC(=O)N1CCC(NC(=O)C2CCN(c3ccc(N4CCOCC4)nn3)CC2)CC1	-4	·	·	·	3
Cc1cc(C)nc(N2CCCC(C(=O)Nc3ccc4c(c3)OCO4)C2)n1 (centres undefined)	-6	i	i	i	9
Cc1[nH]c(C)c2c(=O)n(-c3ccccc3)ncc12	-4	·	·	·	5
CCOC(=O)C(C)(C)Sc1nc2c(cnn2-c2ccc(C)cc2)c(=O)[nH]1	-1	i	i	i	-6
CN(C)c1ccc(NC(=O)Nc2cccc(Cl)c2)cc1	-6	i	i	i	-2
CCC1CCCCN1C(=O)CSc1nnc(-c2ccco2)o1 (centres undefined)	-11	i	i	i	10
Cc1cc(Nc2ccc(F)cc2)n2nc(C)nc2n1	-5	·	·	·	1
O=C(COC(=O)c1ccc(S(=O)(=O)Nc2ccccc2)cc1)NCCN1C(=O)CSC1=O	-3	i	i	i	-4
Nc1nc(Nc2cccc3ccccc23)nc(C2CCCC2=O)n1 (centres undefined)	-4	i	i	i	-3
O=C(NC12CC3CC(CC(C3)C1)C2)N1CCN(C(=O)C2CCCO2)CC1 (centres undefined)	2	i	i	i	-2
COc1ccc(-n2ncc3c(NCc4cccs4)ncnc32)cc1	-4	i	i	i	-1
CCc1cc2c(=O)c(-c3cnn(-c4ccccc4)c3)coc2c(CN2CCOCC2)c1O	-4	·	·	·	-6
CC(C)COc1nc2ccccc2nc1C(C#N)C(=O)NC1CCCCC1 (centres undefined)	-1	i	i	i	-3
COc1ccc(C2/C(=C(/O)c3ccccc3)C(=O)C(=O)N2c2ncccn2)cc1OC (centres undefined)	-1	i	i	i	-3
O=C(O)COc1cccc(NC(=O)C2CCCO2)c1 (centres undefined)	4	i	i	i	3
CC(C)CCn1c(N)c(S(=O)(=O)c2cccs2)c2nc3ccccc3nc21	-6	i	i	i	0
CCCCN(Cc1ccccc1)C(=O)c1cnc2n(c1=O)CCS2	-5	·	·	·	-2
O=C(COC(=O)c1cccs1)c1ccc2c(c1)OCCO2	6	·	·	·	2
O=S(=O)(O)CCN1CCOCC1	2	·	·	·	19
CC(C)Nc1nc(N(c2ccccc2)c2ccccc2)nc(-n2ccnc2)n1	-2	·	·	·	-8
Cc1ccccc1CS(=O)(=O)CCC(=O)N1CCN(c2ccc(N3CCOCC3)nn2)CC1	-3	i	i	i	-2
CCOC(=O)Cn1cnc2c(cnn2-c2ccc(Cl)cc2)c1=O	5	·	·	·	3
O=C(CSc1nc2ccccc2[nH]1)NCCN1CCCCC1	1	·	·	·	-4
CCCN(S(=O)(=O)c1ccc(OCC)cc1)S(=O)(=O)c1cccs1	-8	i	i	i	1
CC(=O)N1CCN(C(=O)COc2ccc(Br)cc2)CC1	-5	i	i	i	-5

Random excerpt: four records from the list
SMILES	FPR ligand	VCAM-1 down	VCAM-1 augmentation	VCAM-1 imaging	FPRL1 ligand
CCCN(S(=O)(=O)c1ccc(OCC)cc1)S(=O)(=O)c1cccs1	-8	i	i	i	1
CCc1cc2c(=O)c(-c3cnn(-c4ccccc4)c3)coc2c(CN2CCOCC2)c1O	-4	·	·	·	-6
CC(C)CCn1c(N)c(S(=O)(=O)c2cccs2)c2nc3ccccc3nc21	-6	i	i	i	0
COc1ccc(-n2ncc3c(NCc4cccs4)ncnc32)cc1	-4	i	i	i	-1

Continuation.
SMILES	FPR ligand	VCAM-1 down	VCAM-1 augmentation	VCAM-1 imaging	FPRL1 ligand
CC(C)CC(NC(=O)COc1ccccc1)C(=O)O (centres undefined)	5	·	·	·	-4
CCOc1ccc(N(CC(=O)Nc2ccc(F)c(F)c2)S(=O)(=O)c2c(C)noc2C)cc1	1	i	i	i	1
CCN(CC)c1ccc(C(=O)n2cnc3ccccc32)cc1	1	77	i	i	-4
COc1ccc(CN2C(=O)c3ccccc3C2C(=O)NCc2cccnc2)c(OC)c1 (centres undefined)	-2	·	·	·	-5
CCCC1O[C@@H]2C[C@H]3[C@@H]4CCC5=CC(=O)C=C[C@]5(C)[C@H]4[C@@H](O)C[C@]3(C)[C@]2(C(=O)CO)O1 (some centres undefined)	8	i	i	i	9
CCOC(=O)N1CCC(NC(=O)c2cc(S(=O)(=O)N3CCCC3)cn2C)CC1	4	·	·	·	-6
CNC(=O)c1ccsc1NC(=O)c1ccccc1	2	i	i	i	-1
CNC(=O)CSc1nnc(-c2cc3c(C)nn(-c4ccccc4)c3s2)n1C	-1	i	i	i	4
CCOC(=O)Nc1cc(OC)c(OC)cc1Cc1nccc2cc(OC)c(OC)cc12	-7	i	i	i	4
Cn1cccc1Cc1nnc(SCC(=O)Nc2ccccc2F)n1CCc1ccccc1	2	i	i	i	2
CCN(C(=O)CCN1C(=O)c2ccccc2C1=O)C1CCCCC1	1	·	·	·	0
CCOc1ccc(C(=O)N(CN2CCCC2=O)c2ccc(C)cc2)cc1	1	i	i	i	0
C=CCNc1nnc(SC2CC(=O)N(c3ccc(OC)cc3)C2=O)s1 (centres undefined)	-12	i	i	i	1
CCC1CCCCN1C(=O)Cn1c(C(=O)OC)cc2ccsc21 (centres undefined)	-2	·	·	·	7
CCN(CC)C1CC(=O)N(c2cccc(C)c2)C1=O (centres undefined)	-2	·	·	·	-2
COc1cccc(NC(=O)CSc2nnc(-c3cc(-c4ccccn4)nc4ccccc34)o2)c1	2	i	i	i	3
CC(C(=O)c1ccccc1)n1cnc2ccccc2c1=O (centres undefined)	2	i	i	i	3
CCOC1(NC(=O)c2ccccc2)C(C)=CC(=O)C=C1C	2	·	·	·	2
CCOC(=O)c1ccc(COC(=O)c2nonc2N)cc1	4	·	·	·	0
O=C(CCc1ccccc1)OCCN1CCOCC1	-2	·	·	·	0
CCOc1cc(NC(=O)c2ccccn2)c(OCC)cc1NC(=O)CC(C)C	5	i	i	i	3
CCOC(=O)CSc1nc(N)cc(=O)[nH]1	6	·	·	·	3
Cc1ccc(-c2nnnn2CS(=O)(=O)c2ccccc2)cc1	-5	i	i	i	-4
CCOC(=O)N1CCN(C(=O)c2ccc(CS(=O)(=O)c3c(Cl)cccc3Cl)o2)CC1	-7	i	i	i	0
COc1ccccc1-c1nnc(NC(=O)c2ccc(S(=O)(=O)N(C)Cc3ccccc3)cc2)o1	0	i	i	i	-2
COc1ccc(CCNc2oc(Cc3cccc4ccccc34)nc2C#N)cc1OC	15	i	i	i	2
O=C(COC(=O)C1CC2C=CC1C2)Nc1ccc2c(c1)OC(F)(F)O2 (centres undefined)	1	i	i	i	-3
CCOc1ccccc1NC(=O)CSc1nnc(CNC(=O)COc2ccc(Cl)cc2)o1	8	·	·	·	-5
CCOC(=O)C(C)Sc1nc2c([nH]c3ccccc32)c(=O)n1C (centres undefined)	1	·	·	·	7
Cn1c(C(=O)NCCCN2CCN(c3ccccc3F)CC2)cc2c(=O)[nH]c3ccccc3c21	2	·	·	·	1

Part of the list above in order of SMILES length, lowest first.
SMILES	FPR ligand	VCAM-1 down	VCAM-1 augmentation	VCAM-1 imaging	FPRL1 ligand
CCOC(=O)CSc1nc(N)cc(=O)[nH]1	6	·	·	·	3
CCOC(=O)c1ccc(COC(=O)c2nonc2N)cc1	4	·	·	·	0
CCOC1(NC(=O)c2ccccc2)C(C)=CC(=O)C=C1C	2	·	·	·	2
CCOC(=O)C(C)Sc1nc2c([nH]c3ccccc32)c(=O)n1C (centres undefined)	1	·	·	·	7
CCOC(=O)N1CCN(C(=O)c2ccc(CS(=O)(=O)c3c(Cl)cccc3Cl)o2)CC1	-7	i	i	i	0
Cn1c(C(=O)NCCCN2CCN(c3ccccc3F)CC2)cc2c(=O)[nH]c3ccccc3c21	2	·	·	·	1

Next records
SMILES	FPR ligand	VCAM-1 down	VCAM-1 augmentation	VCAM-1 imaging	FPRL1 ligand
O=C(CN1C(=O)NC(Cc2ccccc2)C1=O)Nc1ccccc1 (centres undefined)	-1	i	i	i	0
COc1ccc(N(CC(=O)NCc2ccc3c(c2)OCO3)S(=O)(=O)c2c(C)nn(C)c2C)cc1	-3	·	·	·	3
Cc1ccc(C)c(N2CCN(C(=O)CC3Sc4ccccc4NC3=O)CC2)c1 (centres undefined)	-12	·	·	·	-4
COc1ccc(OC)c2[nH]c(=O)c(CCNS(=O)(=O)c3ccc(Cl)cc3)cc12	13	·	·	·	13
COC(=O)c1cnn2c3c(c(C)nc12)CCCC3	-1	·	·	·	-4
CCCNC(=O)c1c(N)n(-c2cc(OC)cc(OC)c2)c2nc3ccccc3nc12	8	i	i	i	-2
CC(NC(=O)c1cccc(F)c1)C(c1cccs1)N1CCN(C)CC1 (centres undefined)	-1	·	·	·	2
Cc1ccc(N(CC(=O)NC2CCCCCC2)S(=O)(=O)c2c(C)nn(C)c2C)cc1	14	·	·	·	-9
CCOC(=O)CN1CC23C=CC(O2)C(C(=O)Nc2ccc(OC)cc2OC)C3C1=O (centres undefined)	-2	i	i	i	1
O=C(NCc1ccccn1)c1ccc(N2CCCC2=O)cc1	-9	·	·	·	9
CSc1nc2c(c(=O)[nH]1)C(c1cccs1)C1=C(CCCC1=O)N2 (centres undefined)	1	·	·	·	-1
Cc1ccc(S(=O)(=O)NC(CC(=O)NCc2ccco2)c2ccco2)cc1 (centres undefined)	-1	·	·	·	0
COCCCNC(=O)c1ccc(CNS(=O)(=O)c2ccc(NC(C)=O)cc2)cc1	-15	·	·	·	8
C[C@@H]1C[C@H]2[C@@H]3CCC4=CC(=O)C=C[C@]4(C)[C@@]3(F)[C@@H](O)C[C@]2(C)[C@H]1C(=O)CO	-8	i	i	i	3
CC1=C(C)[N+](=O)C2CCCCC2N1[O-] (centres undefined)	-2	i	i	i	3
CCN(CCCc1ccccc1)CCCc1ccccc1	54*	i	i	i	1
CCCC(=O)Nc1ccc(-c2nc3cc(C)c(C)cc3o2)cc1	-7	·	·	·	-8
CCC(C)NC(=O)Cn1cccc1C(=O)c1ccccc1 (centres undefined)	0	·	·	·	-7
CCOC(=O)N1CCN(c2nc(-c3ccco3)cc(C(F)(F)F)n2)CC1	-2	·	·	·	-1
COc1ccc(/C(CC2(O)C(=O)Nc3ccccc32)=N\O)cc1 (centres undefined)	0	·	·	·	-3
CCCCCOC(=O)C1=C(C)Nc2nnnn2C1c1ccc(OC)c(OC)c1OC (centres undefined)	3	·	·	·	4
c1ccc2c(c1)Cn1c-2nc2ccccc21	-1	i	i	i	0
N#CC1=C(N)SC(N)=C(C#N)C1CCc1ccccc1	-7	i	i	i	-8
CCOC(=O)C1CCCN(c2c(N3CCN(c4cccc(Cl)c4)CC3)c(=O)c2=O)C1 (centres undefined)	2	·	·	·	-1

Compound activity as filed in PubChem BioAssay.

Not all compounds are listed. The share of hits here may be higher or lower than overall.
